Biofilm kill mix = clotrimazole potentiators killing C. albicans biofilm, primary screen, 4-compound mixtures. AID 1242, 2008. 120,000 tested, 0.02% active. inhibition, % at 7.6 µM. C. albicans biofilm persisters + clotrimazole, fluorescence viability; primary screen in compound mixtures of four per well;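 active means inhibition above 30.3% in the primary screen of four-compound pools, then above 30% when the compound was retested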;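 further: compounds exposed to preformed 24 h biofilms for 48 h; the number belongs to the whole pool; some results filed as inactive read as strong as hits; inactives centre near 12; 0% = biofilm with clotrimazole alone and 100% = kill control; retested singly at about 60 µM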
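System: C. albicans CAF4-2 wild-type biofilms; Medium: RPMI/MOPS medium, pH 7.0; Reagent: Clotrimazole, 50 µg/mL; Times: biofilm formation 24 h, compound exposure 48 h, 37 °C; Detection: 2-h Alamar Blue fluorescence, 535/590 nm excitation/emission; Evaluation: percent inhibition of biofilm viability.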
The depositor's hits bear a star. The list is partial. The share of hits here may be higher or lower than overall.

canonical_smiles | Biofilm kill mix
O=C1OCCC1Sc1nnc(-c2cccnc2)n1-c1ccccc1F (configuration not stated) | 12
CCn1ncc(NC(=S)Nc2ccc(OC)c(OC)c2)c1C(N)=O | -2
CCOC(=O)C1(CCCc2ccccc2)CCN(C(=O)CN2CCOC2=O)CC1 | 21
CCCCN1CCc2c([nH]c3c(C)cccc23)C1=O | 18
O=C(NC(=S)NCc1cccnc1)c1ccccc1 | 12
Cc1c(-c2n[nH]c(=S)n2-c2ccc(C(F)(F)F)cc2)nnn1-c1ccccc1 | 9
O=C(CCO)c1ccc(O)cc1 | 20
Cc1c(C=C2C(=O)c3ccccc3C2=O)cc(C#N)n1C | 8
COc1ccccc1C(=O)CSc1ccccn1 | 9
COc1ccccc1-c1coc2cc(OC(=O)N3CCOCC3)ccc2c1=O | 19
COCCNC(=O)COC(=O)c1cc(-c2ccc(OC)cc2)nc2ccccc12 | 7
COc1ccc(CCNC(=O)C23CCC(C)(C(=O)C2Br)C3(C)C)cc1OC (configuration not stated) | -8
NNC(=O)c1cc(-c2cccs2)nc2ccccc12 | 12
Cc1ccccc1NC(=O)Cn1nnc(C(=O)NCc2ccco2)c1N | 10
Cn1ncc(Br)c1N1C(=O)CCC1=O | 11
CCOC(=O)c1nsnc1NCCSC(=N)N | 7
COc1ccc(NC(=S)N2CCC(C(O)(c3ccccc3)c3ccccc3)CC2)cc1 | 16
COc1cc(CSC)nc(-c2ccccc2)n1 | 22
O=C(CNC(=O)c1ccccc1)OCc1ccc([N+](=O)[O-])cc1 | 3
OCCSc1nc(N2CCOCC2)nc(N2CCOCC2)n1 | 17
COc1ccc(-c2csc(-c3cccs3)n2)cc1OC | 9
COc1ccc(F)cc1C(=O)C1CCCN(Cc2cccn2-c2cccnc2)C1 (configuration not stated) | 10
C/C(=N\NC(=O)Cc1csc(N2CCOCC2)n1)c1ccc(Cl)c(Cl)c1 | 15
COCCNC(=O)C(=O)N/N=C(\C)CC(=O)Nc1ccc(Cl)cc1Cl | 5
O=C(Cn1c(-c2ccccc2)c[n+]2ccsc12)c1ccc(Br)cc1 | -2
Cc1ccc(NC(=O)CCN2C(=O)CSC2=O)c(C)c1 | 8
Nn1c(=S)[nH]nc(Cc2ccc(O)cc2)c1=O | 18
O=[N+]([O-])c1cc(S(=O)(=O)NCCCN2CCOCC2)ccc1Cl | 7
COc1ccc(-c2cc(=Nc3c(C)n(C)n(-c4ccccc4)c3=O)c3ccccc3o2)cc1 | 8
Cc1cc(Br)ccc1SCC(=O)OCC(=O)Nc1ncc(C(F)(F)F)cc1Cl | 10
Cc1[nH]ccc(=O)c1OCc1c(F)cccc1Cl | 3
CN(C)C(=O)CSc1nnc(Cc2ccccc2)n1CC1CCCO1 (configuration not stated) | -5
Cc1ccc(OCc2nc3c4c(ncn3n2)-c2ccccc2CC42CCCC2)cc1 | 9
O=C(COC(=O)c1ccc(CNS(=O)(=O)c2ccc(F)c(Cl)c2)cc1)NCC1CCCCC1 | 20
CCc1nnc(NC(=O)CSc2nnc3c(n2)[nH]c2ccccc23)s1 | 1
O=C(COC(=O)c1cc(NS(=O)(=O)c2cccs2)ccc1O)Nc1ccccc1 | 13
O=c1c2c(ncn1CCO)nc1n2CCC1 | 7
CN(C)CCNC(=O)c1cccc(NS(=O)(=O)c2ccc(Cl)c(Cl)c2)c1 | -1
CCN1C(=O)N(S(=O)(=O)C(F)(F)F)[C@@H](c2ccccc2)C(C(=O)OC)=C1C | 15
CCN(CC1COc2ccccc2O1)S(=O)(=O)c1ccc(C)cc1 (configuration not stated) | 4
O=C1C=C(Nc2ccc(Cl)cc2)CC(c2ccccc2)C1 (configuration not stated) | 10
CCCCNC(=O)CSc1nnc(Cc2ccccc2)n1CC1CCCO1 (configuration not stated) | -1
O=C(NCCSCc1ccc(Cl)cc1)c1cccs1 | 15
CC1=C(OC(=O)C(C)(C)C)C(C)(C)C(c2ccccc2)OC1=O (configuration not stated) | 19
CCS(=O)(=O)c1ccc2oc(Nc3ccc(OC)cc3)nc2c1 | 8
Cc1ccccc1NC(=O)c1ccc(F)c(S(=O)(=O)N2CCCCC2)c1 | 16
CC(C)NC(=O)C1CCN(C2CCN(C(=O)c3ccc4cccc(F)c4n3)CC2)CC1 | 26
CCn1nc(CCC(=O)O)c2ccccc2c1=O | 11
Cc1cccnc1NC(=O)c1ccc(S(=O)(=O)N2CC(C)OC(C)C2)cc1 (configuration not stated) | 12
COc1ccc(C(=O)COC(=O)c2cc(S(=O)(=O)NCc3ccccc3)ccc2O)cc1 | 1
CS(=O)(=O)Nc1ccc(C(=O)NC2CCCCC2)cc1 | 8
COc1ccc(N(C)S(=O)(=O)c2c(C)noc2C)c(OC)c1 | 2
Cc1ccccc1N(CC(=O)NCc1ccco1)C(=O)CCC(=O)Nc1nccs1 | 25
O=C(Nc1ccc(OC(F)F)c(Cl)c1)[C@@H]1CCCN1C(=O)c1cccs1 | 25
Fc1cccc(CSc2ccc(-c3ccco3)nn2)c1 | 16
COc1ccc(NC(=O)COC(=O)COc2ccc(Br)cc2)cc1 | 15
CCNc1ccc([N+](=O)[O-])cc1 | 18
COc1ccc(/C=N/NS(C)(=O)=O)c(OC)c1 | 20
Cc1cccc(C(CC(=O)NCCc2ccccc2)c2ccccc2)c1O (configuration not stated) | 4
COc1cccc(C(=O)OCn2nnc3ccccc3c2=O)c1OC | 10

The listing continues.
canonical_smiles | Biofilm kill mix
O=CN/N=C/c1c(O)ccc2ccccc12 | -89
COc1cccc(NC(=O)Nc2nccc(C)n2)c1 | 8
CCn1c(-c2nn(-c3ccc(C)cc3)ccc2=O)n[nH]c1=S | -8
COC(=O)c1c(NC(=O)CC2Nc3cc(C)c(C)cc3NC2=O)sc(C)c1C (configuration not stated) | 7
Cc1cccn2c(CNCC3OCCc4ccccc43)c(C(=O)N3CCCCC3)nc12 (configuration not stated) | 13
COc1ccc2nc(SC)cc(C)c2c1 | 12
COc1ccc(CCNC(=O)C2CCN(C(=O)NC3CCCCC3)CC2)cc1 | 4
CC1(C)CC(=O)C2=C(C1)N(c1cccnc1)C(N)=C(C#N)C2c1cccs1 (configuration not stated) | 3
O=C(c1ccco1)N1N=C(c2ccccc2)CC1c1ccc2nccnc2c1 (configuration not stated) | 28
O=C(NCc1ccc(S(=O)(=O)NC2CCCCC2)s1)c1ccccc1 | 20
COC(=O)c1cc(OC)c(OC)cc1NCC(=O)Nc1cccc(C(F)(F)F)c1 | 9
O=C(CC(NCc1ccccn1)C(=O)O)Nc1ccccc1Cl (configuration not stated) | 6

Exported with each value named: entries from further up
O=C(CC(NCc1ccccn1)C(=O)O)Nc1ccccc1Cl (configuration not stated)
  Biofilm kill mix: 6

O=C(NCc1ccc(S(=O)(=O)NC2CCCCC2)s1)c1ccccc1
  Biofilm kill mix: 20

O=C(c1ccco1)N1N=C(c2ccccc2)CC1c1ccc2nccnc2c1 (configuration not stated)
  Biofilm kill mix: 28

COC(=O)c1cc(OC)c(OC)cc1NCC(=O)Nc1cccc(C(F)(F)F)c1
  Biofilm kill mix: 9

Remaining list, next part.
canonical_smiles | Biofilm kill mix
Cn1c(CNC(=O)c2ccccc2)nnc1SCC(=O)N1CCN(c2ccccc2)CC1 | -2
Cc1ccc(-c2nnn(C(C)C(=O)N3c4ccccc4CCc4ccccc43)n2)cc1 (configuration not stated) | 4
Cc1ccc(OCCC(=O)OCC(=O)NCCc2ccccc2)cc1 | 15
CN(CC(=O)N1CCN(c2cccc(Cl)c2)CC1)S(=O)(=O)c1cnc[nH]1 | 15
O=c1c(S(=O)(=O)c2ccc(Cl)cc2)cn(Cc2cccc(F)c2)c2ccc(F)cc12 | -7
COC(=O)c1ccccc1NC(=O)CSc1nc(C)cc(C)n1 | 6
CCc1cc(OCCCCNCc2ccccc2)ccc1Cl | 11
O=C(NCCO)/C(=C/c1ccc2c(c1)OCO2)NC(=O)c1ccc(Br)cc1 | 0
CCc1cc2c(=O)n(CC(=O)NCCc3ccc(OC)c(OC)c3)cnc2s1 | 25
S=C(N/N=C/c1ccc2ncccc2c1)Nc1cccnc1 | 5
CN(CC(=O)NCCc1ccc(S(N)(=O)=O)cc1)c1ccccc1 | 18
Cc1ccc(C)c(NC(=S)N(Cc2ccco2)C(C)c2cccs2)c1 (configuration not stated) | 7
Cc1nc(SCC(O)CCl)c([N+](=O)[O-])[nH]1 (configuration not stated) | 10
CCOC(=O)c1sc(=S)n(-c2ccc(OC)cc2)c1C | 14
c1ccc(-n2c(-c3cccs3)nc3nc4ccccc4nc32)cc1 | 14
COc1cccc(CN(C)Cc2nc3cc(C(F)(F)F)ccc3c(=O)[nH]2)c1 | 5
N#Cc1c(NC(=O)/C=C/c2ccco2)sc2c1CCCC2 | 13
Cc1ccc(S(=O)(=O)n2cnc3ccccc32)cc1 | 16
Cc1nnc2sc(SCC(=O)Nc3cccc(Cl)c3)nn2c1=O | 6
CCn1c(C)nc([N+](=O)[O-])c1Sc1ccc(F)cc1 | 23
CC(NC(=O)c1ccncc1)C(c1cccs1)N1CCOCC1 (configuration not stated) | 11
CC1(c2ccccc2)CC(c2ccccc2)=Nc2ccccc2N1 (configuration not stated) | 7
CCOc1ccc(/C=N/NC(=S)NC2CC3CCC2C3)cc1 (configuration not stated) | 11
CCCCN(CC)Cc1c(O)ccc2c(-c3ccccc3)cc(=O)oc12 | 4
Clc1cccc(N/N=C/c2ccncc2)c1 | 10
CC1=CC(C)(C)NC(=S)N1c1ccc(C)cc1 | 2
COC(=O)c1c(NC(=O)/C=C/c2ccc3c(c2)OCO3)sc(C)c1C | 7
Cc1ccc(NC(=S)N2CCC(O)CC2)c(C)c1 | -4
Fc1ccc(CNCc2cccc(Br)c2)cc1 | 1
CCOc1ccc(C(=O)C(C)=O)c(OCC)c1 | 9
CN(C)C(=O)N1CCC(C(=O)N2CCCC(C(=O)c3ccc(C(C)(C)C)cc3)C2)CC1 (configuration not stated) | 10
CCN(CC)C(=O)c1ccc(Cn2cc([N+](=O)[O-])cn2)o1 | 9
Cc1ccc([N+](=O)[O-])c(C(=O)N/N=C/c2cccs2)c1 | 20
CCC(C)OC(=O)C[N+](C)(C)CCOC1CC2CCC1(C)C2(C)C (configuration not stated) | 15
CCOC(=O)C(=CNc1ccc(NC2=NCC(C)S2)cc1)C(=O)OCC (configuration not stated) | 13
COC(c1ccccc1)c1nnc(CCC(=O)N(C)Cc2cccc(-n3cccn3)c2)o1 (configuration not stated) | 10
Cc1cccc(C)c1N1CCN(S(=O)(=O)c2ccccc2)CC1 | 14
O=C(Nc1ccc(CN2CCOCC2)cc1)c1ccc(N2CCCC2)c([N+](=O)[O-])c1 | 0
O=c1c2c3c(sc2nc2n1CCC2)CCCC3 | 14
Cc1ccc(NS(=O)(=O)c2cccs2)cc1S(=O)(=O)N1CCCCCC1 | 4
CCN(CC)S(=O)(=O)c1ccc(N2CCOCC2)c(NC(=O)Cc2ccccc2F)c1 | -16
OCCC1CN(CC#Cc2ccccc2)CCN1C1CCCC1 (configuration not stated) | 44
Fc1ccc(NC(=S)N2CCCC2)cc1Cl | 10
CC(=O)Nc1ccc(OCCC[n+]2cccc(C(=O)[O-])c2)cc1 | 11
c1ccc2sc(N3CCCN(Cc4nc(-c5cnccn5)no4)CC3)nc2c1 | 16
CN(C)c1c(N)c(=O)oc2ccccc12 | 19
Cc1ccc(N2C(=O)c3ccccc3C2=O)cc1 | 17
CCOC(=O)c1c(CSc2cccs2)n(C)c2cc(Br)c(O)c(CN(C)C)c12 | -1
CCOC(=O)C1(CC2CC2)CCN(Cc2cn(C)c3ccccc23)CC1 | 16
CCO[C@@H]1OC(C(=O)NCc2nc3ccccc3[nH]2)=C[C@H](c2csc3ccccc23)[C@H]1CCCO | 19
CCOc1ccccc1NC(=O)CSc1nnc2ccc(-c3cccnc3)nn12 | -14
Fc1ccccc1NC(=S)N1CCN(C/C=C/c2ccccc2)CC1 | 10
O=S(=O)(c1ccccc1)n1c(C(O)c2ccccn2)cc2ccccc21 (configuration not stated) | 13
CCC1CSC(Nc2ccc(C(=O)/C=C/c3ccc(Br)cc3)cc2)=N1 (configuration not stated) | 11
CC(CC(=O)NC(C)c1ccc2c(c1)OCCO2)c1ccccc1 (configuration not stated) | 12
O=[N+]([O-])/C=C/c1cn(Cc2ccc(Cl)cc2)c2ccccc12 | 11
O=C(COC(=O)c1ccccc1)Nc1ccc(Cl)cn1 | 17
CCc1nnc(NC(=O)C2CC(=O)N(c3ccc4c(c3)OCCO4)C2)s1 (configuration not stated) | 15
O=C(N/N=C/c1ccc([N+](=O)[O-])o1)c1ccncc1 | 15
CCCCn1c(=O)nc2n(-c3ccccc3C)c3ccccc3cc-2c1=O | 10

(further entries)
canonical_smiles | Biofilm kill mix
N=c1ccn2c(n1)OC1C(O)C(CO)OC12 (configuration not stated) | 19
COc1ccc2ccccc2c1CNC(=O)CC1C(=O)NCCN1CC(C)C (configuration not stated) | -4
Cc1cc(C)c(S(=O)(=O)Nn2cnnc2)c(C)c1 | 20
CCCCN(C)C1CCN(C(=S)Nc2cccc(SC)c2)CC1 | 0
CC1=C(C)C(=O)C(N2CCOCC2)=CC1=O | 17
Fc1cccc(Nc2nc(Cl)nc(Cl)n2)c1 | 6
Cc1cc([N+](=O)[O-])nn1CC(=O)Nc1ccccn1 | 15
